Screening data: PubChem BioAssay, several laboratories
ZTA counter – blocks Epstein-Barr virus ZTA, an EBNA-1 counter-screen; P03206; ZTA-DNA binding, fluorescence polarization; inhibition, % at 11 µM; 320,000 tested, 0.15% active; AID 2234; in the data active means inhibition above about 33%
Target sequence (P03206 whole entry, looked up): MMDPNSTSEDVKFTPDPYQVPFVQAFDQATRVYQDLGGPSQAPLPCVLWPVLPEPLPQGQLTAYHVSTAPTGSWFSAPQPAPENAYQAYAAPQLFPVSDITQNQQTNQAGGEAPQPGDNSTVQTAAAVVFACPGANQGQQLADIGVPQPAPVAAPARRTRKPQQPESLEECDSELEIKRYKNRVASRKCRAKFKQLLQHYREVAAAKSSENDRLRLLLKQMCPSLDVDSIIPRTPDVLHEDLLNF
MEP2-GFP yeast – modulators of MEP2-GFP levels in yeast, primary screen, S. cerevisiae, multiplex flow cytometry, MLPCN library; S. cerevisiae MEP2-GFP strain, 3 h; 100% = DMSO control level; GFP response vs DMSO, % at 10 µM; 330,000 tested, 0.51% active; AID 2016, 2009;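 active means GFP response versus DMSO above a set limit, roughly screen mean plus 3 SD, cut at about 180% in these data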;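 further: median GFP fluorescence of the barcode-gated MEP2-GFP cells per well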
EBNA-1 inh – EBNA-1 DNA-binding inhibitors, primary screen, biochemical, fluorescence polarization. inhibition, % at 14.8 µM. 300,000 tested, 0.34% active; in the data active means inhibition above about 28%
RPL19A TOR yeast – RPL19A-GFP expression modulators in yeast, primary screen, cell-based, S. cerevisiae, multiplex flow cytometry, MLPCN; percent response vs DMSO, % at 10 µM; AID 2025, 2009; 330,000 tested, 0.3% active; S. cerevisiae RPL19A-GFP strain, 3 h; active compounds read low;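 active means percent response vs DMSO below 50%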;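 further: median channel GFP fluorescence of the barcoded RPL19A-GFP strain; ratio of sample median GFP to plate DMSO average so 100% = DMSO; lower means less RPL19A-GFP as with rapamycin TOR inhibition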
LAP4 TOR yeast – modulators of LAP4-GFP expression in yeast, primary screen, S. cerevisiae, multiplex flow cytometry, MLPCN library; 320,000 tested, 0.34% active; GFP response vs DMSO, % at 10 µM; AID 2023, 2009; 3 h; median GFP as percent of DMSO wells;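 active means GFP response vs DMSO above a set limit, about the screen mean plus 3 SD, cut at about 150% in these data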
* marks the source's active call; other numbers are inactive results. The list is partial; count on the stated rates, not on these rows.

`[N-]=[N+]=CC(=O)OC[C@H](N)C(=O)O` gave ZTA counter 4, MEP2-GFP yeast 99, EBNA-1 inh -8, RPL19A TOR yeast 99 and LAP4 TOR yeast 109.
Screening CCN(CC)C(=O)c1ccc(NC(=O)Nc2ccccc2F)cc1 returned ZTA counter 12, MEP2-GFP yeast 95, EBNA-1 inh 8, RPL19A TOR yeast 100 and LAP4 TOR yeast 119.
For O=C(O)COc1ccc(Cl)cc1Cl the results were ZTA counter 5, MEP2-GFP yeast 97, EBNA-1 inh 6, RPL19A TOR yeast 104 and LAP4 TOR yeast 88.
CCC1(CC)C(=O)C=CNC1=O was read as ZTA counter -18, MEP2-GFP yeast 98, EBNA-1 inh -7, RPL19A TOR yeast 99 and LAP4 TOR yeast 103.
`CCCCCC[N+](=O)[O-]` gave ZTA counter -8, MEP2-GFP yeast 89, RPL19A TOR yeast 96 and LAP4 TOR yeast 96.
For CN1CC[C@]23c4c5ccc(O)c4OC2C(O)C=CC3[C@H]1C5 (stereo partly specified) the results were MEP2-GFP yeast 101, RPL19A TOR yeast 100 and LAP4 TOR yeast 109.
`C[C@]12CCC3=C4CCC(=O)C=C4CC[C@H]3C1CC[C@@H]2O` (stereo partly specified) gave ZTA counter -14, MEP2-GFP yeast 114, EBNA-1 inh -13, RPL19A TOR yeast 110 and LAP4 TOR yeast 111.
Screening COc1ccccc1N1CCNCC1 returned ZTA counter 7, MEP2-GFP yeast 95, EBNA-1 inh -4, RPL19A TOR yeast 98 and LAP4 TOR yeast 90.
Screening C/C=C/c1ccc2c(c1)OCO2 returned ZTA counter -13, MEP2-GFP yeast 95, RPL19A TOR yeast 98 and LAP4 TOR yeast 99.
For CC(C)(O)[C@@H]1[C@H]2OC(=O)[C@@H]1[C@]1(O)C[C@H]3O[C@]34C(=O)O[C@H]2[C@]14C (tested in a mixture with another compound) the results were ZTA counter -17, MEP2-GFP yeast 105, EBNA-1 inh 3, RPL19A TOR yeast 100 and LAP4 TOR yeast 113.
`CN[C@@H](C)[C@@H](O)c1ccccc1` gave ZTA counter 1, MEP2-GFP yeast 97, EBNA-1 inh 2, RPL19A TOR yeast 101 and LAP4 TOR yeast 102.
Screening CCOC(=O)c1ccccc1C(=O)OCC returned ZTA counter -18, MEP2-GFP yeast 97, EBNA-1 inh -1, RPL19A TOR yeast 102 and LAP4 TOR yeast 127.
Screening COc1cc(-c2ccc(N)c(OC)c2)ccc1N returned ZTA counter 5, MEP2-GFP yeast 99, RPL19A TOR yeast 96 and LAP4 TOR yeast 101.
Oc1cccc2cccnc12 was read as ZTA counter 14, MEP2-GFP yeast 98, EBNA-1 inh 3, RPL19A TOR yeast 99 and LAP4 TOR yeast 103.
For CCC(=O)OC(Cc1ccccc1)(c1ccccc1)[C@H](C)CN(C)C (stereo partly specified) the results were MEP2-GFP yeast 95, RPL19A TOR yeast 98 and LAP4 TOR yeast 105.

Reprinted from the results shown for reference:
Screening COc1ccccc1N1CCNCC1 returned ZTA counter 7, MEP2-GFP yeast 95, EBNA-1 inh -4, RPL19A TOR yeast 98 and LAP4 TOR yeast 90.
Screening C/C=C/c1ccc2c(c1)OCO2 returned ZTA counter -13, MEP2-GFP yeast 95, RPL19A TOR yeast 98 and LAP4 TOR yeast 99.
For CC(C)(O)[C@@H]1[C@H]2OC(=O)[C@@H]1[C@]1(O)C[C@H]3O[C@]34C(=O)O[C@H]2[C@]14C (tested in a mixture with another compound) the results were ZTA counter -17, MEP2-GFP yeast 105, EBNA-1 inh 3, RPL19A TOR yeast 100 and LAP4 TOR yeast 113.
`CN[C@@H](C)[C@@H](O)c1ccccc1` gave ZTA counter 1, MEP2-GFP yeast 97, EBNA-1 inh 2, RPL19A TOR yeast 101 and LAP4 TOR yeast 102.
Screening CCOC(=O)c1ccccc1C(=O)OCC returned ZTA counter -18, MEP2-GFP yeast 97, EBNA-1 inh -1, RPL19A TOR yeast 102 and LAP4 TOR yeast 127.
Screening COc1cc(-c2ccc(N)c(OC)c2)ccc1N returned ZTA counter 5, MEP2-GFP yeast 99, RPL19A TOR yeast 96 and LAP4 TOR yeast 101.
Oc1cccc2cccnc12 was read as ZTA counter 14, MEP2-GFP yeast 98, EBNA-1 inh 3, RPL19A TOR yeast 99 and LAP4 TOR yeast 103.
For CCC(=O)OC(Cc1ccccc1)(c1ccccc1)[C@H](C)CN(C)C (stereo partly specified) the results were MEP2-GFP yeast 95, RPL19A TOR yeast 98 and LAP4 TOR yeast 105.
